# From PubChem BioAssay
# FGF22 binding: binders of human FGF22 protein, primary screen, FGF22 synaptogenesis inhibitor project, biophysical, thermal shift, single point; recombinant FGF22 thermal shift, SYPRO orange fluorescence; percent of sucrose octasulfate shift, DMSO zero; calls only at 9.99 µM; actives 1.5% (n = 340,000); AID 651658, 2012;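 active means melting point raised past a set limit in the mean and every replicate; three in four hits are not shown here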
# Target sequence (Q9HCT0 whole entry, looked up): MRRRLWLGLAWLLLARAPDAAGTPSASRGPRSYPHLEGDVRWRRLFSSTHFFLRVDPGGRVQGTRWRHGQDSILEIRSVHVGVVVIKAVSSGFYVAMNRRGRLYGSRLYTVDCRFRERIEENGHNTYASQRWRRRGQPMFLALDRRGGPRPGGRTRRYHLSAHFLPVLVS
# rRNA inh HTS: reduced GFP signal of wild-type E. coli, primary screen, bacterial rRNA inhibitor project, GFP/RFP fluorescence, OD600, single point; E. coli WT GFP vs humanized-ribosome RFP mutants, 24 h; hits give low values; DMSO median 0, no signal -100; GFP signal change (wild-type ribosome), % (test concentration not listed); actives 1.6% (n = 350,000); AID 720706, 2013;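 active means significant combined selectivity score with lowered wild-type GFP, culture density cut under 30%, mutant RFP and density less affected; inactive means any of these conditions unmet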; further: one replicate is shown; some compounds called inactive have numbers as strong as hits
# AF4-AF9 inh: inhibitors of AF4 peptide binding to AF9, primary screen, biochemical, AlphaScreen, biotin-AF4 peptide, FLAG-AF9, single point; Protein AF-9 (Homo sapiens), P42568; AID 651704, 2012; actives 0.47% (n = 350,000); inhibition, % at 10 µM;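 active means every replicate reaching a set inhibition limit, whatever the replicate mean, cut at about 25% in these data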;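 further: 0% = plate neutral control median and 100% = total signal loss; the record names both 10 and 1 µM as test concentration; the first replicate is given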
# Target sequence (P42568 whole entry, looked up): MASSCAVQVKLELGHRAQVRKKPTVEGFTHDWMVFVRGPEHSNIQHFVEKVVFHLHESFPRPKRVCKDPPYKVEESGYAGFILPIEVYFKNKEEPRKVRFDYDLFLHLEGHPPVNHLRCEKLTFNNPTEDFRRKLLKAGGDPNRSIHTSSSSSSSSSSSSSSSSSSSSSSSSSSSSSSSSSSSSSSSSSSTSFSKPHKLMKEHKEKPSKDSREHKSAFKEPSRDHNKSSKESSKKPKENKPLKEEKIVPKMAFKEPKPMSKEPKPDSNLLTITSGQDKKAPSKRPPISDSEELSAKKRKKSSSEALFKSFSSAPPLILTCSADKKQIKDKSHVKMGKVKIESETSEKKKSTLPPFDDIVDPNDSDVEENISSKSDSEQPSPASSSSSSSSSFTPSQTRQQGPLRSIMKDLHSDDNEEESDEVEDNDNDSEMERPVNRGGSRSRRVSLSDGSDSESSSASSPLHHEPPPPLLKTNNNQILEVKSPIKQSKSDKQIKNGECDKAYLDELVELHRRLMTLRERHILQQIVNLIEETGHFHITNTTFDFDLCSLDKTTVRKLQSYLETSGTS
# rRNA inh HTS OD600: further read-out of rRNA inh HTS, marked with its call; OD600 change, %; measured here: OD600 growth;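 optical density of the mix in the first replicate; 0 = DMSO median and -100 = no signal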
# rRNA inh HTS RFP: also measured in rRNA inh HTS; calls as there; RFP signal change, %; measured here: RFP humanized mutant strains;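 first replicate; 0 = DMSO median and -100 = no signal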
# * hit, by the source's call; i = inactive; & = joins results of further samples. Not all compounds are listed; rates above refer to the full screens.
FGF22 binding	rRNA inh HTS	rRNA inh HTS OD600	rRNA inh HTS RFP	AF4-AF9 inh	mol
i	-4	2	-2.4	2.5	COc1ccc(-c2ccc3c(c2)[C@H]2[C@H](CCN2C(=O)c2cnccn2)[C@H](CO)N3)cc1
i	3	6	0.6	-1.1	CO[C@H]1CN(C)C(=O)c2ccc(NC(=O)C3CC3)cc2OC[C@H](C)N(C(=O)NC(C)C)C[C@H]1C
i	-16	-18	-3.5	1.6	Cc1cc2nc(-c3cccc(Br)c3)c(Cc3ccccc3)n2c(C)c1Br
i	0	-5	0.8	-1.2	COc1cccc(S(=O)(=O)N[C@H]2CC[C@H](CC(=O)NCc3ccc(F)cc3)O[C@@H]2CO)c1
i	-3	1	-2.6	-4.0	C/C=C/c1cnc2c(c1)C(=O)N([C@H](C)CO)C[C@@H](C)[C@@H](CN(C)C(=O)Nc1ccccc1F)O2
i	-1	-8	0.1	1.8	O=C(C[C@@H]1C=C[C@@H](NC(=O)c2ccc3c(c2)OCO3)[C@@H](CO)O1)NCc1ccc(Oc2ccccc2)cc1
i	-3	-12	1.7	1.8	COc1cccc(-c2ccc3c(c2)O[C@H](CN(C)C(C)=O)[C@H](C)CN([C@H](C)CO)S3(=O)=O)c1
i	-1	-3	-2.0	-2.5	CC(C)NC(=O)N(C)C[C@@H]1Oc2ccc(NC(=O)Nc3ccc(F)cc3)cc2CC(=O)N([C@H](C)CO)C[C@@H]1C
i	2	3	-2.3	-2.6	COCC(=O)Nc1ccc2c(c1)C(=O)N(C)C[C@H](OC)[C@@H](C)CN(Cc1cncnc1)[C@H](C)CO2
i	-50	-77	-2.0	14	COCCNC(=O)c1cc2c(c(-c3cccc(-c4cc5ccccc5o4)c3)n1)[C@H](CCO)N(S(=O)C(C)(C)C)C2 (stereo not given in full)
i	-1	18	-5.9	-2.6	COc1ccc(NC(=O)C2(C)CCN2C(=O)C(C)C)cc1F (stereo not given)
i	1	2	-1.5	-0.5	NCC[C@@H]1CC[C@H](NS(=O)(=O)Cc2ccccc2)[C@H](CO)O1
i	-3	-9	-2.2	-1.2	CC(C)NC(=O)Nc1ccc2c(c1)C(=O)N([C@@H](C)CO)C[C@@H](C)[C@@H](CN(C)C(=O)Nc1ccccc1)OCCCC[C@H](C)O2
i	-7	2	1.7	-2.3	COc1ccc(CN(C)C[C@H]2Oc3c(NC(=O)c4cnccn4)cccc3C(=O)N([C@@H](C)CO)C[C@@H]2C)cc1
i	-5	-3	-4.6	-8.3	CCCCSc1ncnc2c1ncn2C1CCCCO1 (stereo not given)
i	-1	-24	-0.3	-0.8	CC(C)CNc1cccc2c1S(=O)(=O)N(Cc1cccc(F)c1)[C@@H](C)[C@H](c1ccccc1)O2
i	1	-1	5.9	1.4	COc1ccc(S(=O)(=O)Nc2ccc3c(c2)C(=O)N([C@H](C)CO)C[C@@H](C)[C@@H](CN(C)Cc2ccc(C(F)(F)F)cc2)OCCCC[C@@H](C)O3)cc1
i	-4	-5	-5.6	-2.1	Cc1noc(C)c1NC(=O)Nc1cccc2c1O[C@@H](CN(C)Cc1ccc(C(F)(F)F)cc1)[C@H](C)CN([C@H](C)CO)C2=O
i	1	8	0.8	5.5	O=C(C1CCOCC1)N1CC(=O)N2[C@H](CO)[C@@H](c3ccc(/C=C/c4ccccc4)cc3)[C@H]2C1
i	17	22	0.4	2.1	O=C(OCc1ccccc1)N1CCC2CC1c1cc(N3CCN(S(=O)(=O)c4cccc5ccccc45)CC3)ccc12 (stereo not given)
i	-4	3	5.7	-1.0	Cc1ccccc1-c1cnc2c(c1)C(=O)N([C@@H](C)CO)C[C@@H](C)[C@@H](CN(C)Cc1ccccc1F)O2
i	1	8	-0.4	-5.4	C[C@H]1CN([C@@H](C)CO)C(=O)c2cc(-c3ccc(C#N)cc3)cnc2O[C@H]1CN(C)Cc1cccnc1
i	12	17	3.9	-1.5	O=C1NC[C@H](CCCCN2CCN(CC3CCCCC3)C(=O)C2=O)N(CC2CCCCC2)C1=O
i	-2	-8	2.0	1.1	CCCN(C)C[C@@H]1Oc2cc(C#Cc3ccccc3F)ccc2S(=O)(=O)N([C@@H](C)CO)C[C@H]1C

# Complete entries, quoted from the list:
# CC(C)CNc1cccc2c1S(=O)(=O)N(Cc1cccc(F)c1)[C@@H](C)[C@H](c1ccccc1)O2 as listed: FGF22 binding: i; rRNA inh HTS: -1; rRNA inh HTS OD600: -24; rRNA inh HTS RFP: -0.3; AF4-AF9 inh: -0.8
# O=C(C[C@@H]1C=C[C@@H](NC(=O)c2ccc3c(c2)OCO3)[C@@H](CO)O1)NCc1ccc(Oc2ccccc2)cc1 as listed: FGF22 binding: i; rRNA inh HTS: -1; rRNA inh HTS OD600: -8; rRNA inh HTS RFP: 0.1; AF4-AF9 inh: 1.8

# Some of these compounds in order of the rRNA inh HTS OD600 value, lowest first:
smiles | FGF22 binding | rRNA inh HTS | rRNA inh HTS OD600 | rRNA inh HTS RFP | AF4-AF9 inh
CC(C)CNc1cccc2c1S(=O)(=O)N(Cc1cccc(F)c1)[C@@H](C)[C@H](c1ccccc1)O2 | i | -1 | -24 | -0.3 | -0.8
CC(C)NC(=O)Nc1ccc2c(c1)C(=O)N([C@@H](C)CO)C[C@@H](C)[C@@H](CN(C)C(=O)Nc1ccccc1)OCCCC[C@H](C)O2 | i | -3 | -9 | -2.2 | -1.2
Cc1noc(C)c1NC(=O)Nc1cccc2c1O[C@@H](CN(C)Cc1ccc(C(F)(F)F)cc1)[C@H](C)CN([C@H](C)CO)C2=O | i | -4 | -5 | -5.6 | -2.1

# Remaining list, next part
FGF22 binding	rRNA inh HTS	rRNA inh HTS OD600	rRNA inh HTS RFP	AF4-AF9 inh	mol
i	-3	-15	4.5	-0.1	CCCNC(=O)N1CC2(CCN(S(=O)(=O)c3cccc(OC)c3)CC2)c2c(n(C)c3cc(OC)ccc23)[C@H]1CO
i	-6	-14	4.6	-0.2	O=C(CC1CC1)N1CC2(C1)[C@H](c1ccccc1)[C@H](CO)N2Cc1ccc(F)cc1
i	-9	6	-0.3	-4.1	COc1ccc(S(=O)(=O)NC(=O)C2(C)CCN2C(=O)Cc2cc(F)ccc2F)cc1 (stereo not given)
i	-10	-63	6.3	-1.2	COc1ccc(-c2cc(C(=O)NCc3cccc(Cl)c3)[nH]n2)c(C)c1
i	3	-3	-5.2	9.7	CN(C)CC#Cc1ccc([C@H]2[C@H](CO)N3CCCCN(C(=O)c4ccc5c(c4)OCO5)C[C@@H]23)cc1
i	-1	5	1.2	-2.0	CC1(C(=O)Nc2ccccc2Br)CCN1C(=O)Cc1ccccc1Cl (stereo not given)
i	-1	7	-2.5	-0.2	C[C@@H]1CN([C@H](C)CO)C(=O)Cc2cc(NC(=O)Cc3cn(C)c4ccccc34)ccc2O[C@H]1CN(C)Cc1ccc(Cl)c(Cl)c1
i	-1	-12	9.9	16	COc1ccc(CN(C)C[C@@H]2Oc3ccc(NC(=O)Nc4ccc5c(c4)OCO5)cc3CC(=O)N([C@H](C)CO)C[C@@H]2C)cc1
i	9	12	3.9	-2.6	CC1(C(=O)NS(=O)(=O)c2cccc(OC(F)F)c2)CCN1C(=O)Cc1cccs1 (stereo not given)
i	-3	-35	-8.1	-5.2	Cc1cccc(C)c1-n1nnnc1C1(C)CCC(=O)N1Cc1cccc(C(F)(F)F)c1 (stereo not given)
i	3	9	2.6	-1.9	CC(C)NC(=O)N(C)C[C@H]1Oc2c(cccc2N(C)C)C(=O)N([C@@H](C)CO)C[C@H]1C
i	-2	-5	-1.4	0.4	O=C1CCC(=O)N1CCC(=O)N(C(=O)NC1CCCCC1)C1CCCCC1
i	0	-2	-1.5	-1.5	C[C@H]1CN([C@@H](C)CO)C(=O)Cc2cc(NC(=O)Cc3ccccc3)ccc2O[C@H]1CN(C)C(=O)Nc1ccc(F)cc1
i	-40	-72	66	58*	CN(C)c1ccc(C=c2c3ccccc3n3c2cc(-c2ccc(Cl)cc2)[n+]3C)cc1
i	0	7	-2.0	-5.2	COc1ccc(S(=O)(=O)N(C)C[C@H]2Oc3ccc(NC(=O)C4CC4)cc3C(=O)N([C@H](C)CO)C[C@H]2C)cc1
i	-5	-21	9.8	6.7	C[C@@H]1CN([C@H](C)CO)S(=O)(=O)c2ccc(C#CC3CC3)cc2O[C@@H]1CN(C)Cc1ccncc1
i	0	-4	-0.4	-1.7	COc1ccc(NC(=O)Nc2ccc3c(c2)C(=O)N([C@H](C)CO)C[C@@H](C)[C@@H](CN(C)S(=O)(=O)c2cn(C)cn2)O3)cc1
i	-6	-12	-0.5	-0.9	CCNC(=O)C[C@H]1CC[C@H]2[C@@H](COC[C@@H](O)CN2S(=O)(=O)c2ccc(Oc3ccccc3)cc2)O1
i	-14	-38	24	5.0	O=C(C[C@@H]1C[C@H]2c3cc(NS(=O)(=O)c4ccc(F)cc4)ccc3O[C@H]2[C@@H](CO)O1)NCc1ccc(Oc2ccccc2)cc1
i	-1	-2	0.8	-1.7	C[C@@H]1CN([C@@H](C)CO)C(=O)Cc2cc(NC(=O)C3CCCCC3)ccc2O[C@@H]1CN(C)S(=O)(=O)c1ccccc1
i	8&-2	3&-5	8.3&0.1	1.0&-0.8	C[C@@H]1CN([C@@H](C)CO)C(=O)c2cc(NC(=O)c3ccccc3)ccc2O[C@@H](C)CCCCO[C@@H]1CN(C)S(=O)(=O)c1ccc(F)cc1
i	-2	1	3.0	-1.9	O=C(C1CCC1)N1CC(=O)N2[C@@H](CO)[C@H](c3ccc(Br)cc3)[C@@H]2C1
i	-16*	-11*	6.3*	2.9	COC(=O)[C@@]1(Cc2ccccc2)[C@H]2C(=O)N(C)C(=O)[C@H]2[C@H]2CN=C(SCc3ccccc3)N21
i	14	14	0.9	3.2	CC(C)CC(N)c1csc(Nc2ccccn2)n1 (stereo not given)
i	-1	5	-0.2	-0.2	C[C@@H]1CN([C@H](C)CO)C(=O)c2cc(NC(=O)c3ccncc3)ccc2O[C@@H]1CN(C)Cc1ccc(C(=O)O)cc1
i	27	11	0.3	-0.5	CCOC(=O)C1=CC[C@@H](c2ccccc2)N(S(=O)(=O)c2ccc(C)cc2)[C@H]1c1ccc(CC)cc1
i	-4	0	1.7	-1.0	Cc1ccc(S(=O)(=O)N2CCC[C@H]2C(=O)OCCN2C(=O)c3ccccc3C2=O)cc1
i	9	21	-7.1	0.2	COC1CC(=O)C2OC(c3ccccc3)OCC2O1 (stereo not given)
i	10	19	-0.8	-5.6	CN(C)c1ccc(-c2[nH][nH]c(=O)c2NC(=O)c2ccccn2)cc1
i	1	1	-1.7	-2.0	CC(C)NC(=O)N[C@@H]1CC[C@H](CC(=O)NC2Cc3ccccc3C2)O[C@@H]1CO
i	0	7	-0.6	-1.4	COc1ccccc1-c1ccccc1[C@H]1[C@@H](C#N)N(C(=O)C2CCOCC2)[C@H]1CO
i	0	6	0.1	-2.0	COc1ccccc1C(=O)Nc1ccc2c(c1)C(=O)N(C)C[C@H](OC)[C@@H](C)CN(C(C)=O)[C@H](C)CO2
i	-3	-1	0.4	0.0	CCOC(=O)C(=O)N(C)c1c(CC)nc2c(OCc3ccc(Cl)cc3)cccn12
i	2	8	-1.5	-6.4	Cc1ccc(S(=O)(=O)N(C)C[C@H]2OCCCC[C@@H](C)Oc3ccc(NC(=O)NC4CCCCC4)cc3C(=O)N([C@H](C)CO)C[C@@H]2C)cc1
i	13	9	0.4	-0.4	O=c1[nH][nH]c(=O)c(Cl)c1Cl
i	7	14	-1.1	-3.3	C[C@H]1CN([C@@H](C)CO)C(=O)c2cc(NC(=O)Cn3cnnn3)ccc2O[C@H]1CN(C)C(=O)Nc1ccccc1
i	-11	-45	-10	4.4	CCOC(=O)Nc1ccc2c(c1)C(=NNC(N)=S)c1ccccc1-2
i	1	2	-0.6	-4.0	COc1ccc(CNC(=O)N(C)C[C@@H]2OCc3ccccc3-c3ccccc3C(=O)N([C@@H](C)CO)C[C@H]2C)cc1
i	2	2	5.2	10	O=C(COC(=O)c1ccc(F)c(S(=O)(=O)N2CCOCC2)c1)Nc1ccc2c(c1)OCO2
i	-1	-5	-1.0	-3.0	CCC(=O)N1CC2(CN(C(=O)Nc3ccc(F)cc3)C2)c2c([nH]c3cc(OC)ccc23)[C@@H]1CO
i	6	14	-2.0	-2.0	Cc1noc(C)c1NC(=O)N1C[C@@H](O)COC[C@@H]2O[C@H](CC(=O)NCC3CC3)CC[C@H]21
i	-8	-35	-11	-4.7	CC(O)(c1ccccc1)c1nc(-c2cccc(C#N)c2)cs1 (stereo not given)
i	-1	-6	1.3	-2.3	COc1ccc(S(=O)(=O)N[C@H]2C=C[C@H](CC(=O)NCCc3ccncc3)O[C@H]2CO)cc1
i	23	20	8.2	-1.2	CCOc1ccc(CCN2C(=O)C(=O)N([C@@H](CC(C)C)CN3CCC[C@H]3CN3C(=O)C(=O)NC[C@@H]3CC(C)C)C[C@@H]2Cc2ccccc2)cc1

# A few values from the results shown.
# CCC(=O)N1CC2(CN(C(=O)Nc3ccc(F)cc3)C2)c2c([nH]c3cc(OC)ccc23)[C@@H]1CO in AF4-AF9 inh = -3.0
# CC(O)(c1ccccc1)c1nc(-c2cccc(C#N)c2)cs1 (stereo not given) in rRNA inh HTS OD600 = -35
# Cc1noc(C)c1NC(=O)N1C[C@@H](O)COC[C@@H]2O[C@H](CC(=O)NCC3CC3)CC[C@H]21 in rRNA inh HTS = 6
